NS1 inh – blocks influenza NS1 protein function. hit rate 0.4% among 270,000. Potency, µM (doses to about 46.1 µM), for inactives: at the highest dose activity, positive = more growth. S. cerevisiae slowed by influenza A NS1, growth recovery by OD600; further: actives are rising curves; nearly all actives have a fitted effect of over 50% in size
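Recovery from NS1-induced slow growth read by OD600 in budding yeast switched to galactose assay medium (pH 6.0, -URA) at 1:100 dilution. Compound 23 nl per well; the matching strain lacking NS1 serves as control.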
SARS PLP yeast – inhibitors of SARS-CoV papain-like protease in yeast. S. cerevisiae expressing SARS-CoV PLpro, growth rescue; control for the full effect not named in the record. Potency, µM (series often up to 32.9 µM), inactives show at the highest dose activity, positive = growth rescue. hit rate 0.19% among 330,000; further: 0% is about no effect; nearly all actives have a fitted effect of over 55% in size; growth read by luminescence after 48 h
MARV entry inh – blocks Marburg virus binding to or entry into cells; Marburg virus pseudotyped entry inhibition, cell reporter; control for the full effect not named in the record; about a third of the inactives were read at about 46 µM; Potency, µM (series often up to 37.8 µM), for inactives: top-dose activity change, negative = inhibition, most hits filed as inhibitors; hit rate 1.8% among 300,000; AID 540276; active = well fitted inhibition curve with a large enough effect; inconclusive = small, poorly fitted or top-dose-only effect, or effect the other way; inactive = flat fitted curve, though single readings scatter; tested in HEK293 cells; about a fifth of its hits are not listed in these tables; further: on the % scale 0 is the no-effect control and ±100 the full control effect; luciferase read-out
Cruzain inh Det – blocks cruzain activity in presence of Triton detergent. purified cruzain, Z-FR-AMC fluorescence, 0.01% Triton. Potency, µM, without a hit: max response, negative = inhibition, most hits filed as inhibitors. AID 1478. hit rate 0.43% among 200,000. P25779; active means well fitted curve in the direction sought with a large enough effect; inconclusive means small, poorly fitted or top-dose-only effect, or another doubt; inactive means no such curve, though single readings can be large; an effect the other way counts as inactive or inconclusive;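 further: plate controls were neutral wells for no effect and buffer without enzyme for full effect; nearly all actives have a fitted effect of over 40% in size; top concentration of the series not given in the record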
Target sequence (P25779 123-467 limits assumed): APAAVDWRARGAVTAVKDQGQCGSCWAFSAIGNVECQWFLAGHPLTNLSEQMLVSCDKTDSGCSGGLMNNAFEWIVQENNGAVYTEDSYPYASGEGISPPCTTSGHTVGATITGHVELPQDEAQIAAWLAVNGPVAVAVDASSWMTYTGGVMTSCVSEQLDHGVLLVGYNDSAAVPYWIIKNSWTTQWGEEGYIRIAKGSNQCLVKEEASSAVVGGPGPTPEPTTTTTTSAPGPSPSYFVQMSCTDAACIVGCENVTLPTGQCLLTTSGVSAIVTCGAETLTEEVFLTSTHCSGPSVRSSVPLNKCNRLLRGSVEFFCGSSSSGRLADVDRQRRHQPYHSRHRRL
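Steps: dispense cruzain (1.5 nM final) in acetate buffer pH 5.5 with DTT and 0.01% Triton X-100; pin-transfer compounds; incubate 15 min RT; add Z-FR-AMC (2 uM final); read fluorescence every 30 s, using the 60 s intensity change.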
Cruzain noTriton – cruzain (T. cruzi) inhibition without detergent | P25779 | purified cruzain, Z-FR-AMC fluorescence, no detergent | Potency, µM, for the others: max response, negative = inhibition, actives largely listed as inhibitors | hit rate 2.3% among 200,000 | AID 1476; active means well fitted curve in the direction sought with a large enough effect; inconclusive means small, poorly fitted or top-dose-only effect, or another doubt; inactive means no such curve, though single readings can be large; an effect the other way counts as inactive or inconclusive;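 further: plate controls were enzyme without inhibitor for no effect and buffer without enzyme for full effect; nearly all actives have a fitted effect of over 40% in size; top concentration of the series not given in the record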
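Purified cruzain at 1.5 nM, pre-incubated 15 min with compound at room temperature in 100 mM sodium acetate pH 5.5, 5 mM DTT, 0.00005% Triton X-100. Reaction started with 2 uM Z-FR-AMC; AMC fluorescence increase over 60 s gives rate.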
StopGo reporter – lowers the luciferase signal of an FMDV 2A StopGo reporter; human cells with a luciferase reporter of 2A StopGo recoding; control for the full effect not named in the record; Potency, µM (top dose mostly 57.9 µM), inactives show at the top dose signal change, negative = less light; hit rate 1.2% among 410,000; active = well fitted falling curve with a large enough effect; inconclusive = small, poorly fitted or top-dose-only effect; inactive = no such curve, though single readings can be large or run the other way; tested in HEK293T cells; further: on the % scale 0 is the no-effect control and ±100 the full control effect; nearly all actives have a fitted effect of over 45% in size; luciferase light after 4 h
LASV entry inh – inhibitors of Lassa virus binding or cell entry. Potency, µM (titrated, usually from 37.9 µM), without a hit: at the top dose activity change, negative = inhibition, hits mostly inhibitors. Lassa virus pseudotype entry inhibition, cell reporter; control for the full effect not named in the record. hit rate 1.2% among 300,000; active means well fitted inhibition curve with a large enough effect; inconclusive means small, poorly fitted or top-dose-only effect, or effect the other way; inactive means flat fitted curve, though single readings scatter; tested in HEK293 cells; further: on the % scale 0 is the no-effect control and ±100 the full control effect; nearly all actives have a fitted effect of over 50% in size; luciferase read-out
RE007 growth inh – less growth of the S. pombe RE007 Vpr strain. S. pombe RE007 Vpr strain, BacTiter-Glo ATP luminescence, 24 h; control for the full effect not named in the record. Potency, µM (top dose mostly 92.2 µM), without a hit: at the top dose activity change, negative = less growth. hit rate 0.21% among 360,000. AID 651644; active = well fitted falling curve with a large enough effect; inconclusive = small, poorly fitted or top-dose-only effect; inactive = no such curve, though single readings can be large or run the other way;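 further: on the % scale 0 is the no-effect control and ±100 the full control effect; nearly all actives have a fitted effect of over 50% in size; the assay follows cell death caused by Vpr and the record does not say whether a fall means rescue or toxicity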
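Fission yeast RE007 carrying one integrated HIV-1 vpr copy, seeded at OD 0.01 in PMG+AL medium with 23 nL pinned compound. Grown 24 h at 30 degrees; viability read by BacTiter-Glo luminescence after 5 min.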
An asterisk follows results filed as active; ? = inconclusive; · = not tested or not shown; & = joins results of further samples; [ ] = dose if it differs, or a comment. Unless noted, the call rests on the fitted dose curve; in most records, active means well fitted rising curve with a large enough effect; inconclusive means small, poorly fitted or top-dose-only effect; inactive means no such curve, though single readings can be large or run the other way. Potency means the concentration at half of the fitted maximal effect.

Compound	NS1 inh	SARS PLP yeast	MARV entry inh	Cruzain inh Det	Cruzain noTriton	StopGo reporter	LASV entry inh	RE007 growth inh
Cc1ccc(C)c(N2CCN(C(=O)c3ccc4c(=O)n5c(nc4c3)CCCCC5)CC2)c1	8%	0%	·	·	·	0%	·	14%
COc1cccc(-c2cc(C(=O)N3CCCc4ccccc43)no2)c1	-37%	-7%	2%	-1.2%	-9%	33%[activator]	-21%	-9%
CCOC(=O)c1nnn(CC(=O)NC(=O)Nc2ccc(F)cc2)c1C(=O)OCC	·	1%	2%&2%[46.1 µM]	9.6%	19%	-19%&-24%	?	3%
Cc1cc(NC(=O)c2ccc(C)c(C)c2)no1	-32%	-4%	·	·	·	7%	·	5%
FC(F)(F)c1cccc(-n2nnnc2C2(N3CCOCC3)CCCCC2)c1	0%	-6%	-12%	-2.0%	?	0%	-1%	2%
Cc1ccc(C(C)C)cc1OCC(=O)Nc1ccc(-n2cnnn2)cc1	·	-7%	22%	·	·	-16%	-5%	0%
Cc1occc1C(=O)Nc1cccc(C(=O)O)c1	4%	-3%	-1%	-0.4%	-6%	-10%	-20%	9%
COC(=O)c1sc2cccc(F)c2c1S(=O)(=O)N1CCN(c2ccccc2OC)CC1	·	·	·	-7.8%	7%	?	?	·
Nc1cccc(N=Cc2c(O)n(Cc3ccc(F)cc3)c(=O)[nH]c2=O)c1	6%	21%	?	-4.1%	-2%	-26%	?	2%
COc1ccc(OC)c(NC(=O)CSc2nnc(Cn3nnc4ccccc43)n2C)c1	0%	3%	5%	2.1%	9%	-3%	0%	9%
COc1ccc(C2COC(=O)C2=N)c(NC(=O)c2ccccc2)c1 (configuration not stated)	23%	-10%	-4%	-3.4%	-12%	-14%	13%	20%
O=S(=O)(NC(=S)NC1CCCCC1)c1ccc(Cl)cc1	-50%	-1%	10%	·	·	2%	1%	-17%

Continuation.
Compound	NS1 inh	SARS PLP yeast	MARV entry inh	Cruzain inh Det	Cruzain noTriton	StopGo reporter	LASV entry inh	RE007 growth inh
COc1cnc(-c2ccccn2)nc1Sc1cccc(Cl)c1	-4%	0%	?	-1.1%	10%	-6%	?	-10%
CC(C)(C)C(=O)Nc1ccc(-c2cn3cccnc3n2)cc1	3%	-2%	?	·	·	10%	-4%[46.1 µM]	5%
CCc1nccn1S(=O)(=O)c1cccc([N+](=O)[O-])c1	-4%	4%	?	1.0%	-6%	-18%	1%	-8%
O=C(CSc1n[nH]c(-c2ccccc2)n1)Nc1ncccn1	-4%	-2%	11%[46.1 µM]	·	·	34%[activator]	12%	3%
COc1ccc(/C=C(\C#N)C(=O)N=CN(C)C)cc1	·	-3%	-10%[46.1 µM]	·	·	42%[activator]	-19%	-11%
C/C(=N/NC(=O)CNC(=O)c1cccnc1)c1ccccc1	5%	6%	·	·	·	-8%	·	-2%
Cc1nn(C)c(Oc2cccc(Cl)c2)c1C(=O)O	1%	4%	9%	2.4%	1%	-4%	-9%	37%
CCCCN1CC(C(=O)NC2CCCCC2)CC1=O (configuration not stated)	-2%	2%	11%	4.1%	-1%	0%	7%	-4%
O=C(COc1ccc(Cl)cc1Cl)NCCC1=CCCCC1	-67%	2%	?	-12%	19%	-1%	?	-18%
COc1ccc(S(=O)(=O)N(C)CC(=O)NC2CCCCC2)cc1OC	-3%	7%	7%	4.8%	5%	10%	-13%	15%
Cc1ccc(CNC(=O)CN2C(=O)COc3ccccc32)cc1	·	·	·	0.6%	0%	35%[activator]	4%[46.1 µM]	·
O=C(CC1SC(=Nc2cccc3ccccc23)N(Cc2ccccn2)C1=O)Nc1ccccc1Br (configuration not stated)	18%	-5%	?	0.6%	?	7%	?	9%

Next section
Compound	NS1 inh	SARS PLP yeast	MARV entry inh	Cruzain inh Det	Cruzain noTriton	StopGo reporter	LASV entry inh	RE007 growth inh
COc1ccc(Cl)cc1NC(=O)Cn1ncc2c3ccccc3n(C)c2c1=O	·	·	-5%[46.1 µM]	0.2%	-11%	7%	-9%[46.1 µM]	·
O=C(COc1ccc(Cl)cc1Cl)NN1C(=O)C2C3C=CC(C3)C2C1=O (configuration not stated)	-2%	0%	?	·	·	-5%	5%	-6%
CS(=O)(=O)N1N=C(c2ccco2)CC1c1ccccc1 (configuration not stated)	1%	1%	26%	-1.3%	-4%	12%	9%	-2%
Cc1onc(-c2c(F)cccc2Cl)c1C(=O)ONC(=O)c1ccccc1	0%	1%	0%[46.1 µM]	·	·	-24%	4%[46.1 µM]	1%
CCCCn1c(SCC(=O)N2CCC(C)CC2)nc2ccsc2c1=O	-18%	2%	8.2µM*	0.0%	-4%	?	14%	16%
Cc1nc2ccn(Cc3ccco3)c(=O)c2cc1C(=O)N1CCN(c2ccc(F)cc2)CC1	·	·	·	-6.7%	?	-23%	-14%[46.1 µM]	·
O=C(O)C1C2C=CC3(CN(Cc4ccncc4)C(=O)C13)O2 (configuration not stated)	1%	-1%	18%	-0.4%	9%	0%	6%	31%
COCCn1c(SCC(=O)Nc2ccccc2)nnc1-c1ccoc1C	-5%	0%	7%[46.1 µM]	·	·	-4%	-2%[46.1 µM]	-2%
COc1ccccc1CCNC(=O)C(=O)NCC(c1ccco1)S(=O)(=O)c1ccccc1 (configuration not stated)	·	·	·	-2.8%	1%	-28%	-15%[46.1 µM]	·
COc1cccc(OCCNc2cc(N3CCCCC3)ccc2[N+](=O)[O-])c1	-5%	5%	?	2.6%	-2%	1%	?	0%
O=C(O)c1ccc(Cl)cc1NC(=O)C1CCCO1 (configuration not stated)	-5%	·	3%	8.6%	-3%	2%	21%[14.3 µM]	4%
CC(=O)Nc1ccc(S(=O)(=O)N2CCN(c3ncccn3)CC2)cc1	-10%	0%	·	·	·	?	·	1%

The listing continues.
Compound	NS1 inh	SARS PLP yeast	MARV entry inh	Cruzain inh Det	Cruzain noTriton	StopGo reporter	LASV entry inh	RE007 growth inh
COc1ccc(OC)c2[nH]c(=O)c(CCNC(=O)COc3ccccc3)cc12	-15%	3%	?	2.2%	-3%	-13%	6%	10%
COc1ccccc1NC(=O)C/C(C)=N/NC(=O)COc1c(Br)cc(Br)cc1OC	·	4%	21%[46.1 µM]	·	·	?	?	-6%
COc1ccc(-c2cc(C(F)(F)F)nc(SCCC(=O)NCc3ccco3)n2)cc1	-10%	25%	-28%	-9.1%	3%	-37%	-4%	-4%
Cc1nc(/C(N)=N/OC(=O)c2c(-c3ccccc3Cl)noc2C)cs1	-3%	-18%	7.9µM*	·	·	-13%	-25%	-7%
COc1cccc(Cn2nnc3c(=O)[nH]c(C4CCCN(C(=O)c5ccc(C)cc5)C4)nc32)c1 (configuration not stated)	·	·	?	-1.7%	-5%	-11%	-12%[46.1 µM]	·
COc1ccc(-c2nc(-c3ccccc3)no2)c(OC)c1	-42%	-26%	?	-4.9%	-8%	·	1.6µM*	?
CCOC(=O)c1ccc(NC(=O)C2CC(=O)N(c3ccc(C(C)C)cc3)C2)cc1 (configuration not stated)	·	·	·	-1.6%	13%	-8%	11%[46.1 µM]	·
CCN(CC(=O)Nc1ccc(OC)cc1)C(=O)c1oc2c(Cl)cccc2c1C	·	-3%	?	·	·	-11%	-27%	5%
COc1cc(/C=N/NS(=O)(=O)c2ccc(C)cc2)ccc1OCc1cccc(C(=O)O)c1	1%	0%	?	·	·	?	?	-9%
Cc1cc(C)cc(-n2nnnc2SCC(=O)N2CCOCC2)c1	7%	-24%	10%[46.1 µM]	-3.8%	3%	-8%	-5%	13%
COc1ccc(C(=O)Nc2ccnn2C2CCN(C(=O)c3cc(C)on3)CC2)cc1	-6%	-5%	18%	·	·	22%	9%	-7%
COc1ccc(/C=N\NC(=O)COc2ccc(Cl)cc2Cl)c(C(=O)O)c1OC	5%	12%	0%	-0.3%	18%	9%	1%	16%

Going on with the list:
Compound	NS1 inh	SARS PLP yeast	MARV entry inh	Cruzain inh Det	Cruzain noTriton	StopGo reporter	LASV entry inh	RE007 growth inh
O=C(O)CSCC(=O)NCc1c(Cl)cccc1Oc1ccccc1	-1%	0%	·	·	·	1%	·	15%
Cn1c(=O)c2c(nc(N3CCCCCC3)n2Cc2cccc3ccccc23)n(C)c1=O	-92%	-8%	?	-5.1%	?	28µM*	-24%	-5%
COc1cc(C(=O)NCCNc2nc3c(C)c(C)ccc3cc2C#N)cc(OC)c1OC	0%	1%	·	·	·	-23%	·	3%
COc1ccccc1N1CCN(C(=O)c2ccc(S(=O)(=O)N3CCCC3)cc2)CC1	-14%	2%	0%	1.5%	?	-33%	5%	8%
CN(C(=O)c1ccc2c(c1)N(Cc1ccccc1F)C(=O)c1ccccc1S2(=O)=O)C1CCCCC1	·	·	?	-1.0%	18%	5%	-16%[46.1 µM]	·
CCOc1ccc(CN2CCN(c3ncnc4sc5c(c34)CC(C)CC5)CC2)cc1 (configuration not stated)	·	·	-19%[46.1 µM]	-2.5%	4%	-7%	-1%[46.1 µM]	·
COc1ccccc1-c1cc(C(F)(F)F)nc(S(=O)(=O)CCCC(=O)Nc2cc(C)on2)n1	2%	3%	?	-15%	-12%	13µM*	-3%	16%
COc1ccc(Cn2c(SC)nc3ccccc32)cc1[N+](=O)[O-]	-2%	2%	?	-0.7%	-4%	-21%	0%	5%
O=C(NNC(=O)c1cc2cc(Br)ccc2oc1=O)c1ccc(O)cc1O	8%	?	3%[46.1 µM]	·	·	-19%	?	10%
O=C1CN=C(c2ccc(Br)cc2)c2oc3ccccc3c2N1	-3%	2%	?	2.8%	-5%	8%	-2%	-1%
COc1ccc(S(=O)(=O)N2CCN(S(=O)(=O)c3ccc4c(c3)OCCO4)CC2)cc1	7%	-5%	-8%&-8%&-8%&-8%	-3.2%	-1%	-17%	-2%	9%
Cn1cccc1P(=O)(c1cccn1C)c1cccn1C	-2%	-4%	0%	1.8%	2%	·	?	-8%
COc1ccc(N2CCN(S(=O)(=O)c3ccc4c(c3)NC(=O)CC(=O)N4)CC2)cc1	15%	6%	·	·	·	4%	·	-7%
[O-]/[N+](=C\c1ccncc1)c1ccccc1	-8%	-6%	2%	-2.0%	7%	24%	18%	4%

High-throughput results (PubChem)

Compounds were not picked by outcome. Share with any hit: about 4.7%.
